Assay outcomes: PubChem, several laboratories
UCH37 DUB inh: inhibitors of human UCH37 deubiquitinase, primary screen, biochemical, Ub-AMC cleavage, fluorescence | Ubiquitin carboxyl-terminal hydrolase isozyme L5 (Homo sapiens), Q9Y5K5 | inhibition, % (concentration not given with the values) | actives 0.33% (n = 330,000) | purified proteasome/UCH37;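 active means mean of two replicates above 20%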;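 further: 0% = compound-free wells with enzyme and 100% = wells lacking proteasome; stock transfer was 100 nL into about 20 µL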
Target sequence (Q9Y5K5 whole entry, looked up): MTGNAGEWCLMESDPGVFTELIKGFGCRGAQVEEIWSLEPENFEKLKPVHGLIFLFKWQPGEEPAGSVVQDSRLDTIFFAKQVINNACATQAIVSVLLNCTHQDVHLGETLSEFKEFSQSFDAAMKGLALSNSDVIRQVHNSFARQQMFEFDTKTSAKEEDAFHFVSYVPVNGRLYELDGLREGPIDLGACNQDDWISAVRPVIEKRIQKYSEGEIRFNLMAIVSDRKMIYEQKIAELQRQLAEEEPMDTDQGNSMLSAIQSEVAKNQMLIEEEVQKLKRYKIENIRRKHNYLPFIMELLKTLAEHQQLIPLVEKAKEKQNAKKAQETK
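Material: Human UCH37 enzyme supplied as purified proteasome complex | Schedule: 30 min preincubation with enzyme, 25 min cleavage at room temperature | Detection: AMC fluorescence 355/460 nm | Measure: % inhibition of Ub-AMC cleavage fluorescence | Controls: Wells without proteasome as full block, compound-free enzyme plus substrate as uninhibited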
B2AR ag: beta2AR agonists driving receptor internalization, primary screen, cell-based, FAP fluorogen, flow cytometry | actives 0.43% (n = 340,000) | Beta-2 adrenergic receptor (Homo sapiens), P07550 | AID 504454, 2011 | Am2.2-beta2AR cells; reference of the scale not given here | response, % (concentration not given with the values);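 active means response above a set limit, near 3 SD of response in nonfluorescent compounds, cut at about 42% in these data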;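 further: stock transfer was 100 nL into about 11 µL; a reference agonist was the positive control; negative values mostly stem from fluorescent compounds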
Target sequence (P07550 whole entry, looked up): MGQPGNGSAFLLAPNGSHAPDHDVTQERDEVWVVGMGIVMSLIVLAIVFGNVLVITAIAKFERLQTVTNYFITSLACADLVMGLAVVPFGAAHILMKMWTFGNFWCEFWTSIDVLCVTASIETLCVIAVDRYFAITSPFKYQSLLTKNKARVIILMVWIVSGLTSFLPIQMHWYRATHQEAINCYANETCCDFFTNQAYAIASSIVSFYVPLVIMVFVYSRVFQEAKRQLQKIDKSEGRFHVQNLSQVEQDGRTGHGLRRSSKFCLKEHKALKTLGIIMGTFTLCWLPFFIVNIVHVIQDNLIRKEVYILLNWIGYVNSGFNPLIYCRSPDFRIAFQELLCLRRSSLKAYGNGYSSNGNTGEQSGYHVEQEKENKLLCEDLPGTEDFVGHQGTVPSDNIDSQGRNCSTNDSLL
HNF4A DNA FP: change in binding of human HNF4A to DNA, primary screen, biochemical, fluorescence polarization, FITC-DNA | activity change, % at 10 µM | actives 0.3% (n = 360,000) | 1 h | AID 1224865, 2016 | Hepatocyte nuclear factor 4-alpha (Homo sapiens), P41235; in the data active means activity change above about 30%, passing the limit was not always enough;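 further: controls were the assay level and a saturating level of protein; the project sought stronger binding though the title names inhibitors; some compounds called inactive have numbers as strong as hits; positive values seem to mean higher polarization but the record does not say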
Bfl-1 A1 inh: caspase 3/7 activation in MEF A1-2A-BIM cells, primary screen, A1 inhibitor project, cell-based, luminescence, HTS. actives 0.066% (n = 330,000). Caspase-Glo 3/7 luminescence, 3 h; percent of clofoctol response, vehicle zero. caspase activation, % (test concentration not listed). AID 2462, 2010;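 active means over half of replicate activation scores above 10%, or exactly half above 10 with the replicate mean above 10; inconclusive means replicate mean below 10 yet half the replicates above 10; inactive means over half of replicates below 10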;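 further: wells of about 30 µL received 50 nL stock; many hits fall short of the cut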
Vif TR-FRET: inhibitors of Vif binding to APOBEC3G peptide, primary screen, biochemical, TR-FRET, GST-Vif 1-94, biotin-A3G peptide, dose response retest (AID 1117319); actives 0.57% (n = 260,000); TR-FRET GST-Vif / biotin-A3G peptide binding; higher % means a stronger effect; test concentration not given here; strong numbers were not always called active; Virion infectivity factor (Human immunodeficiency virus type 1 group M subtype B (isolate …; inhibition, %; hits with a dose series show IC50 in µM;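 active means above the screen mean plus three standard deviations and confirmed in dose response; inconclusive means results disagree or hit not tested in dose response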;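 further: Vif residues 1-94 fused to GST binding biotinylated APOBEC3G peptide 110-148; 0% = full assay without inhibitor and 100% = GST in place of GST-Vif; retest series ran down from 100 µM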
LANA-H2B inh: blockers of LANA interaction with H2A/H2B – biochemical, FP readout, HTS, primary screen; cell-free LANA-H2A/H2B peptide, fluorescence polarization; inhibition, % (concentration not given with the values); actives 0.6% (n = 320,000); AID 2629, 2010; in the data active means inhibition mostly above about 10%, no sharp cut-off; inactive means mostly below about 6.7%;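 further: stock transfer was 7.5 nL into about 10 µL; 0% = median of vehicle wells and 100% = median of positive control wells; one replicate is shown; the record names a cut of 25% in any replicate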
Ecoli growth: E. coli growth inhibition, primary screen, OD600 | OD600 absorbance (concentration not given with the values) | actives 0.21% (n = 330,000) | Escherichia coli growth, 23 h; stronger effect = lower value | AID 1053175, 2014;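 active means OD600 absorbance below the run mean of sample wells minus 3.6 SD, in any replicate, cut at about 0.56 in these data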;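 further: stock transfer was 300 nL into about 60 µL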
Starred values were filed as active, the others as inactive; ? = inconclusive; / = no result given; & = joins results of further samples.

SMILES	UCH37 DUB inh	B2AR ag	HNF4A DNA FP	Bfl-1 A1 inh	Vif TR-FRET	LANA-H2B inh	Ecoli growth
COc1ccc(Cc2nnc(SCC(=O)c3cccc([N+](=O)[O-])c3)n2C)cc1	2.1	4	-0.6	-0.5	17%	0.7	0.71
CC1=CCC2C(=O)N(C(C)c3ccccc3)C(=O)C2C1 (stereo not drawn)	1.9	1	0.2	-0.9	-6%	3.1	0.65
Cc1c(NC(=O)[C@@H](NC(=O)c2ccc(Cl)c([N+](=O)[O-])c2)C(C)C)c(=O)n(-c2ccccc2)n1C	4.5	-11	3.3	0.7	-5%	-1.3	0.7
O=C(OCc1nc2scc(-c3ccccc3)c2c(=O)[nH]1)c1cccc([N+](=O)[O-])c1	0.9	0	2.9	0.9	9%	-3.8	0.68
Cn1c(=O)c2c(nc(CN3CCc4ccccc4C3)n2Cc2ccccc2)n(C)c1=O	1.3	8	2.8	-1.7	9%	1.6	0.73
O=C(COc1ccc(S(=O)(=O)N2CCOCC2)cc1)NC1CCCC1	2.6	9	-2.2	0.1	8%	2.4	0.63
O=c1oc(-c2cc3ccccc3o2)nc2sc3c(c12)CCCC3	-39	6	1.3	-1.9	31%	-9.2	0.74
Cn1c(=O)c2[nH]c(NN=Cc3ccccc3)nc2n(C)c1=O	8.2	-11	-0.5	/	-10%	/	0.69
Cc1ccc(C)c(/C=C2\N=C(c3ccccc3F)OC2=O)c1	5.2	5	-1.5	-1.2	/	-3.2	0.7
Cc1ccc2[nH]c(C(=O)O)c(-c3ccccc3)c2c1	-16	12	0.3	0.3	0%	-4.0	0.67
CCOc1ccc2nc(SCC(=O)NC(=O)NCc3ccco3)sc2c1	3.3	8	5.7	-0.4	0%	-2.9	0.79
C/C(=N/NC(=O)CNC(=O)c1cccs1)c1ccco1	/	-12	-1.5	0.2	8%	3.4	/
CC1CC(C)CN(C(=O)c2cc3ccccc3o2)C1 (stereo not drawn)	0.7	28	4.5	0.0	-6%	1.0	0.75
CCOC(=O)C1=C(COC(=O)CCC(=O)c2ccc(C)cc2)NC(=O)NC1C (stereo not drawn)	1.3	1	0.0	-1.8	4%	0.0	0.68
COc1ccc(C2c3cc(OC)c(OC)cc3CC3C(=O)OCC32)cc1OC (stereo not drawn)	2.2	-1	4.0	/	-3%	/	0.71
C=CCN(C(=O)Nc1ccc2oc(C)nc2c1)c1ccccc1	-6.1	-9	-1.4	1.3	9%	0.6	0.74
CN(CC(=O)Nc1c(Cl)cccc1Cl)CC(=O)N(C)C1(C#N)CCCCC1	-0.1	2	-3.5	-1.6	2%	-0.3	0.71
Nc1ccc(-c2sc(N)nc2-c2ccccc2)cc1	-99	-6	1.7	-0.9	7%	-3.0	0.63
C=C(c1ccccc1)c1ccccc1N	40*	2	-2.8	1.3	/	-3.1	0.66
O=C(CSc1nc2ncc(Cl)cc2[nH]1)c1c[nH]c2ccccc12	0.5	10	12	-0.2	-56%	1.3	0.64
c1ccc(NCC2OCc3ccccc3CO2)cc1	4.0	0	-1.0	0.6	6%	2.9	0.67
Cc1cc(=O)[nH]c(N2CCCC2)n1	1.9	7	3.6	0.2	-3%	-3.7	0.71
Cc1cnc(C(=O)OCC(=O)N2CCc3ccccc3C2)cn1	0.5	-2	-0.1	0.2	16%	2.1	0.71
Cc1nc(SCc2ccccc2)[nH]c(=O)c1CC(=O)OCC(C)C	5.8	5	-1.7	-0.5	-10%	1.4	0.7
CC(=O)c1ccc(NC(=O)c2ccc(N3C(=O)c4cccnc4C3=O)cc2)cc1	2.9	-3	1.2	0.3	/	6.2	0.71

Following part.
SMILES	UCH37 DUB inh	B2AR ag	HNF4A DNA FP	Bfl-1 A1 inh	Vif TR-FRET	LANA-H2B inh	Ecoli growth
COc1ccc(/C=C/C(=O)NC(=S)Nc2ccc(S(N)(=O)=O)cc2)cc1OC	-5.7	-1	-4.6	0.4	/	-0.7	0.69
CS(=O)(=O)N(CC(=O)NCCSC1CCCCC1)c1ccccc1	2.1	-4	-1.5	0.5	/	4.0	0.65
S=c1[nH]nc(COc2ccccc2)n1/N=C/c1cccnc1	/	-2	-4.0	-0.3	-3%	0.5	/
CC1CCCC(C)N1C(=S)SCC(=O)O (stereo not drawn)	3.2	-5	-1.9	0.4	-1%	0.8	0.64
Cc1ccc(NC(=O)COc2coc(CN3CCc4ccccc4C3)cc2=O)c(C)c1	1.4	-6	0.4	-0.6	-1%	-3.8	0.64
CN(c1ccc(C(=O)Nc2cccnc2)cc1)S(C)(=O)=O	4.4	10	0.1	0.6	17%	2.5	0.75
COC(=O)C1=C(C)N(Cc2ccccc2)C(=O)N[C@H]1c1ccc(Br)cc1	4.0	16	-1.4	0.3	-6%	-3.0	/
CCOc1cc(/C=C2\SC(=N)N(c3nonc3N)C2=O)ccc1OCCN1CCOCC1	13	8	5.7	2.8	31%	-2.0	0.69
O=C1C=C(c2ccc3cc[nH]c3c2)C[C@@H](c2ccc3c(c2)OCO3)C1	3.8	4	-6.4	0.3	/	5.1	/
CCCn1c(-c2cccc(F)c2)nc2c1c(=O)[nH]c(=O)n2Cc1ccccc1	2.0	-10	2.7	0.5	/	5.8	0.64
CCc1nc2ccccc2nc1N1CCN(S(=O)(=O)c2ccc(Cl)cc2)CC1	-7.3	8	-4.8	-0.2	-18%	0.1	0.66
CCCC(NCC(=O)Nc1cc(S(=O)(=O)N2CCOCC2)ccc1OC)c1ccccc1 (stereo not drawn)	2.3	2	-3.5	0.0	/	6.5	0.68
O=C1c2cccc3cccc(c23)C(=O)N1CC1CCN(CC(O)COCc2ccc3c(c2)OCO3)CC1 (stereo not drawn)	-80	10	-3.9	0.1	/	6.5	0.65
O=C(Cn1ncc2c(=O)oc3ccccc3c21)N(Cc1ccco1)C1CCCCC1	3.8	-7	-2.2	-1.5	19%	-1.3	0.79
O=C(NC(=S)N(CCc1ccccc1)CCc1ccccc1)c1ccco1	1.6	-8	-0.4	-0.4	-2%	/	0.66
CC(C)NC(=O)NC(=O)CN1C(=O)NC(Cc2c[nH]c3ccccc23)C1=O (stereo not drawn)	2.3	-8	0.2	0.1	-9%	2.5	0.65
CCOC(=O)C(CCCCCCC(NC(C)=O)(C(=O)OCC)C(=O)OCC)(NC(C)=O)C(=O)OCC	4.0	9	2.5	0.3	4%	2.6	0.67
CC(=O)Nc1ccc(NC(=O)C/C(C)=N/NC(=O)C(=O)Nc2ccc(C)c(Cl)c2)cc1	/	0	-2.0	-0.7	-12%	-2.2	/
CN(C)c1nc(OCCNC(=O)COc2ccc(Cl)cc2Cl)nc(N2CCOCC2)n1	4.8	-12	0.9	0.5	-3%&63%	8.3	0.69
CCC1CCCCN1CCCNC(=O)Cn1c2ccccc2c2nc(=O)cc(C)n21 (stereo not drawn)	-2.7	10	1.3	-0.2	/	-0.1	0.7
Cc1ccc(C(=O)CSc2nnc(CNc3ccc(C)cc3C)o2)cc1	0.2	-3	-1.4	-0.4	13%	-1.6	0.73
CN(CCC#N)C(=S)Nc1ccc(F)cc1	6.4	-8	1.4	0.5	?	4.4	0.67
Cc1ccc(CNC(=O)C2CCCN2S(=O)(=O)c2ccc(Cl)cc2)cc1 (stereo not drawn)	0.6	3	4.6	0.3	/	-4.7	0.69
COc1ccc(/C=N/n2cncn2)cc1COc1ccc(NC(C)=O)cc1	/	-7	2.0	-1.4	1%	-6.8	/
Cc1cc(C)n2nc(SCC(=O)Nc3ccc(O)cc3)nc2n1	0.7	12	0.6	-0.5	/	4.6	0.67

Record cards, as listed above. Screens in order: UCH37 DUB inh, B2AR ag, HNF4A DNA FP, Bfl-1 A1 inh, Vif TR-FRET, LANA-H2B inh, Ecoli growth
Cc1ccc2[nH]c(C(=O)O)c(-c3ccccc3)c2c1 across the screens: -16, 12, 0.3, 0.3, 0%, -4.0, 0.67
Cc1ccc(CNC(=O)C2CCCN2S(=O)(=O)c2ccc(Cl)cc2)cc1 (stereo not drawn) across the screens: 0.6, 3, 4.6, 0.3, /, -4.7, 0.69

Continuation:
SMILES	UCH37 DUB inh	B2AR ag	HNF4A DNA FP	Bfl-1 A1 inh	Vif TR-FRET	LANA-H2B inh	Ecoli growth
C[C@H](CO)N1C[C@H](C)[C@@H](CN(C)C)Oc2c(NC(=O)c3ccncc3)cccc2C1=O	-1.0	-9	-3.7	0.6	/	1.9	/
N#Cc1cc2c(nc1SCC(=O)N1CCCCC1)CCCC2	1.3	-19	-2.1	-0.3	?	8.6	0.7
COc1ccc(-n2cc(-c3ccccc3)c3c(=S)nc[nH]c32)cc1	4.5	16	-2.2	0.5	3%	-1.1	0.7
CCC(C)NC(=O)CCNS(=O)(=O)c1ccc(Br)cc1 (stereo not drawn)	0.5	-1	4.2	1.1	-3%	-2.0	0.76
CCNC(=S)N1CCC(NC(=O)C2CCCCC2)CC1	2.8	9	1.8	0.4	20%	11	0.71
CC[C@H](C)[C@H]1CNC(=S)N1CC1CCN(CCCC2CCCC2)CC1	/	-10	1.2	/	0%	/	/
COc1ccc(C(=O)/C=C/c2ccccc2)c(OC)c1	5.5	19	-2.1	0.9	-10%	-4.8	0.74
O=C(CSc1nc2ccccc2c(=O)n1-c1ccc(F)c(Cl)c1)Nc1cccc(S(=O)(=O)N2CCOCC2)c1	1.8	6	0.9	0.2	-12%	2.1	0.72
COc1ccc2cc(S(=O)(=O)N3CCCCCC3)ccc2c1	2.3	0	-0.6	0.9	-6%	-3.1	0.68
Cc1cc2oc(=O)c(CC(=O)NCCCN(C)C)c(C)c2c2occ(C(C)(C)C)c12	-193	/	/	-0.6	/	-2.4	0.67
Cc1ccc(OCC(=O)NCCNC(=O)c2ccco2)cc1C	0.4	-3	0.4	-0.3	/	-1.6	0.66
Cc1nn(CC(=O)N2CCN(C34CC5CC(CC(C5)C3)C4)CC2)c(C)c1[N+](=O)[O-]	5.9	-7	7.1	1.5	/	5.0	0.65
O=C(Nc1nccs1)c1ccc(N2C(=O)[C@@H]3[C@H](C2=O)[C@H]2C=C[C@@H]3C2)cc1	5.7	5	-0.5	0.3	-5%	-0.3	0.69
CC(=O)c1ccc(NC(=O)C2CCC(C)NC2=O)cc1 (stereo not drawn)	2.2	7	2.3	0.4	0%	0.7	0.69
Cc1cccc(OCCCn2c(=O)sc3ccccc32)c1	0.7	-10	0.2	-0.8	29%	4.8	0.69
CCOC(=O)c1cnc(SCC(=O)Nc2cc(C(F)(F)F)ccc2N2CCOCC2)nc1N	0.9	-1	-2.7	-0.7	27%&-11%	6.8	0.8
CCOC(=O)Cn1cc(C#N)c2ccccc21	2.3	11	-2.4	0.1	-10%	3.0	0.72
CCOC(=O)c1c(C)n(C)c2ccc(OC(=O)c3ccc([N+](=O)[O-])cc3)cc12	3.0	4	-0.6	-0.4	/	5.4	0.71
O=C(CCl)NCCCN(C(=O)C(Cl)Cl)c1ccc([N+](=O)[O-])cc1	7.1	-1	3.9	0.3	6%	-0.9	0.67
CC(C)OC(=O)C1C(=O)CC(C)(O)C(C(=O)OC(C)C)C1c1cccc(O)c1 (stereo not drawn)	3.3	0	-2.9	-0.2	2%&2%	-13	0.72
CCCCC(=O)NC(=S)Nc1cccc(Cl)c1N1CCCCC1	1.9	15	1.3	-0.1	2%	-2.0	0.74
